RecA splice inh: blocks M. tuberculosis RecA intein splicing. P9WHJ3. cell-free RecA intein splicing, fluorescence. inhibition, %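 (about 9 µM by stock and volumes)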. 290,000 compounds, 0.75% hits; in the data active = inhibition above about 30%; inconclusive = no clear call, values can overlap the other calls;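 also: 0% = vehicle wells and 100% = reference inhibitor control wells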
Target sequence (P9WHJ3 whole entry, looked up, canonical isoform): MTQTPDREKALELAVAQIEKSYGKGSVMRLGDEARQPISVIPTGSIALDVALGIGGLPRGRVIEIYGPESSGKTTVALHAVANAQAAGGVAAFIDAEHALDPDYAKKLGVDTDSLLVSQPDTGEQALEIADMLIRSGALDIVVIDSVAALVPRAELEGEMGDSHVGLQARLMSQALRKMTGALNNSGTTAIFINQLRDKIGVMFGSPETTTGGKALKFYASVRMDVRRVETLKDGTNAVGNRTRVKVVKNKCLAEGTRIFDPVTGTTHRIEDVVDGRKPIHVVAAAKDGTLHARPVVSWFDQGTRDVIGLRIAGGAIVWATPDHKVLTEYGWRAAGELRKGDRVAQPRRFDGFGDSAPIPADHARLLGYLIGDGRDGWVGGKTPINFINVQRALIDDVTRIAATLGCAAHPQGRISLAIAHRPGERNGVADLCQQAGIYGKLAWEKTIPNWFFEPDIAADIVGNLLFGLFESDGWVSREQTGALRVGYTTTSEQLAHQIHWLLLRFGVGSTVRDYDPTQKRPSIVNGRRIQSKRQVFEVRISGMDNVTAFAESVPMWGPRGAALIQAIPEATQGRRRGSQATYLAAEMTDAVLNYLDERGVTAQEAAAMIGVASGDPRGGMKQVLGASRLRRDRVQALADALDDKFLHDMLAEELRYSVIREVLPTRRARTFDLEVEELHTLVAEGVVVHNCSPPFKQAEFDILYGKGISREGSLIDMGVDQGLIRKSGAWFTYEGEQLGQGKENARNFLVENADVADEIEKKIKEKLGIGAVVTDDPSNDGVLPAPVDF
Mtb betalactam: beta-lactam sensitization of Mtb H37Rv; M. tuberculosis H37Rv growth with meropenem, percent inhibition; hits of this screen are not shown here; inhibition, % at 25 µM; 330,000 compounds, 0.27% hits;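 active = about 74% or more and at least 40 points above the plate without the antibiotic, then above 30% in a dose series; inconclusive = first-round hits that could not be retested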;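 also: growth measured after seven days incubation then overnight dye step; 0% = bacteria only wells and 100% = bacteria with antibiotic; twin plates without the antibiotic show which effects depend on it; some results filed as inactive read as strong as hits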
Mtb growth: M. tuberculosis H37Rv growth inhibitors, H37Rv strain (AID 1626); M. tuberculosis H37Rv growth inhibition; higher % means a stronger effect; 220,000 compounds, 0.95% hits; one-dose inhibition, % at 10 µM; IC50 in µM for titrated hits;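 active = confirmed in a dose series; inconclusive = inhibition above 80% but not taken into the dose series; inactive = below 80% or under 30% at every dose of the series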;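 also: bacteria incubated seven days before Alamar blue readout; 0% = bacteria only wells and 100% = bacteria with antibiotic wells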
YopH PTP inh: blocks Yersinia enterocolitica YopH tyrosine phosphatase. AID 898. inhibition, %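 (about 10 µM by stock and volumes)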. 140,000 compounds, 0.16% hits. fluorescence Ex485/Em525;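 active = inhibition of 50% or more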;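 also: controls were vehicle for no effect and minimum signal wells for full effect; inactives centre near -20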
Arbovirus inh: antivirals against arbovirus infection; AID 1251; inhibition, % at 10 µM; arbovirus infection cell-based antiviral screen; 200,000 compounds, 0.37% hits;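 active = inhibition from about 30%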;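 also: bluetongue infection of BSR cells; cell survival read as ATP light after 72 h; 0% = infected wells without compound and 100% = uninfected wells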
Arbovirus inh repeat: also measured in Arbovirus inh; calls as there; inhibition, %; measured here: 10K subset replicate screen; many hits read low in the repeat;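 first of two repeat runs on a subset; 0% = infected and 100% = uninfected wells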
Numbers without * were called inactive; i = inactive; u = inconclusive; x = not tested or not shown. An excerpt; the hit share may differ from the screen's.

SMILES	RecA splice inh	Mtb betalactam	Mtb growth	YopH PTP inh	Arbovirus inh	others
CCc1nc(SCC(=O)N2CCN(c3ccccc3)CC2)c2oc3ccccc3c2n1	32.4*	3.2	-6.8%	-42.5	0.5
CNc1ccc(Br)cc(C(=O)/C=C/c2cccc(Cl)c2Cl)c1=O	x	x	-7.2%	x	-21.6
c1ccc(-n2ncc3c(NCc4ccc5c(c4)OCO5)ncnc32)cc1	3.7	84.7	0.8%	-16.4	1.2
CN(Cc1ccccc1)S(=O)(=O)c1ccc(OCC(=O)NCc2cccnc2)cc1	-2.0	0.4	x	x	x
CC1CC(C)CN(S(=O)(=O)c2cccc3nsnc23)C1 (stereo not given)	1.1	-4.9	x	x	x
CCCNC(=O)COc1coc(CN2CCN(Cc3ccccc3)CC2)cc1=O	-1.7	-7.3	x	x	x
Cc1cc(C(=O)Nc2cccc(NC(=O)c3ccco3)c2)ccc1[N+](=O)[O-]	-0.6	-1.9	x	x	x
CC(C)[C@H](NC(=O)c1c(F)cccc1F)C(=O)N1CCN(c2ccc(F)cc2)CC1	-1.7	-1.2	x	x	x
CCCOn1c(-n2nc(C)cc2C)nc2ccccc2c1=O	1.1	8.8	-15.5%	2.3	3.7
Cc1onc(-c2ccccc2Cl)c1C(=O)NCc1ccc(S(N)(=O)=O)cc1	2.5	-6.1	-1.7%	-27.6	9.3
c1ccc(OCCSc2ncnc3nc[nH]c23)cc1	0.4	7.2	3.5%	-57.6	-22.4	Arbovirus inh repeat=-13.0
Cc1cc(C)nc(-n2nc(C)cc2NC(=O)CN2CCCC(C)C2)n1 (stereo not given)	1.1	4.9	17.8%	-20.1	1.7
COc1cc(C(=O)O)cc(OC)c1OCc1cc(C(=O)O)oc1C	-5.7	-15.3	-5.3%	-3.0	7.8
CCOC(=O)c1cccc(NC(=O)c2cncc(Br)c2)c1	3.9	0.0	5.5%	-3.8	-1.6
COc1cc2c(cc1OC)C(C(=O)NCCC(C)C)C1CCCCN1C2=O (stereo not given)	0.8	-1.0	-1.8%	-22.9	7.2
Cc1ccc(C(=O)Nc2cccc(C(=O)O)c2)cc1	1.6	6.2	-6.6%	-15.3	-4.2
CCOc1cccc(/C=C2\NC(=S)N(c3ccccc3)C2=O)c1O	-1.7	1.6	3.8%	x	x
CCCCc1c(C)nc2ccc(C)cc2c1SCCC(=O)O	x	-6.8	1.3%	x	-1.8
O=C(COC(=O)c1ccccc1NC(=O)c1ccco1)Nc1ccc2c(c1)OCO2	0.1	-5.7	5.9%	-46.2	-5.9
CC1Oc2ccccc2N(Cc2cccnc2)C1=O (stereo not given)	0.5	0.7	-0.5%	-32.2	6.0
O=C(NCC1CC1)c1onc(CSc2ccc(F)c(F)c2)c1C(=O)NCC1CC1	5.5	-1.5	x	x	x
CCOc1ccc2nc(SCC)[nH]c2c1	-1.7	-3.7	1.0%	1.2	-2.5
Cc1cc(C)n(-c2nc3ccccc3nc2NCCc2ccccc2)n1	1.1	-0.1	11.4%	-32.0	-18.5
COc1cccc(/C=N/Nc2ncnc3c2ncn3Cc2ccccc2)c1O	2.5	6.9	-2.6%	-24.2	-33.8
O=C(CSc1nc2sc3c(c2c(=O)n1-c1ccccc1)CCCC3)NCc1ccco1	-3.9	-4.2	x	-19.6	-3.9	Arbovirus inh repeat=1.7
CC(=O)N1CN(C2CCCC2)Cc2c1sc1c2CCCC1	0.2	3.0	-1.2%	-41.0	0.6
COc1ccc(NC(=O)CCc2c(C)nn(-c3ccc(N4CCOCC4)nn3)c2C)cc1	-1.2	6.0	x	x	x
COCC(=O)N(Cc1nc2sc(C)c(C)c2c(=O)[nH]1)C1CCCCC1	-0.9	-3.7	5.6%	x	x
CCOC(=O)N1CCN(Cc2nnc(-c3ccccc3Cl)o2)CC1	-0.5	6.5	x	x	x
COc1ccc(C)cc1NC(=O)COC(=O)C1CC1	0.4	4.3	3.2%	3.6	-0.9
O=C(CCn1c(=O)oc2ccccc21)N1CCN(c2ccc(F)cc2)CC1	-4.9	-5.6	-2.2%	-6.4	-2.7	Arbovirus inh repeat=1.9
O=C(NCCO)c1ccc(Cl)c(Cl)c1	-0.4	-9.1	4.9%	-15.4	8.8
CCCn1c(=O)[nH]c(=O)c2c1nc(-c1ccc(C(F)(F)F)cc1)n2CCOC	-4.9	3.1	x	x	x
CC1CCN(c2nc3ccc(C(=O)O)cc3s2)CC1	0.8	2.9	-8.1%	-32.4	2.1
CCCOC(=O)C1C2C=CC(C3CC23)C1C(=O)OCC(=O)c1ccccc1 (stereo not given)	6.5	9.2	1.7%	1.1	8.7
Cc1nc2ccccc2n1CC(=O)N/N=C/c1cccs1	2.4	0.5	-0.1%	-17.2	1.6
COc1cc(/C=N/NC(=O)Cn2c([N+](=O)[O-])cnc2C)ccc1OC(=O)N(C)C	-1.4	1.7	-13.7%	-3.8	1.1
CC(=O)c1cccc(NC(=S)N2CCN(S(=O)(=O)c3ccc(F)cc3)CC2)c1	0.7	-8.7	x	x	x
Cc1ccc(OS(=O)(=O)c2ccccc2)c(/C=N/N=C2\NC(=O)C(C)S2)c1 (stereo not given)	x	-0.5	4.2%	-1.5	20.9
CSCCC(NS(=O)(=O)c1ccc(Cl)cc1)C(=O)OCC(=O)NC1CC1 (stereo not given)	-0.2	-8.0	x	-7.3	-2.4
O=C1NC(=S)N(c2ccc(F)cc2)C(=O)/C1=C\c1ccoc1	x	x	-1.6%	x	0.5
C=CCc1cc(/C=C2/NC(=O)NC2=O)cc(OCC)c1O	-7.7	-8.2	-4.5%	x	-3.0
NC(=O)NCc1cccc(Cl)c1	-3.2	2.8	3.0%	-35.3	-4.0
CC(C)(C)c1ccc(OCC(O)CN2CCN(c3ccccn3)CC2)cc1 (stereo not given)	1.6	31.0	x	x	x
CCOC(=O)c1ccc(Nc2ncnc3c2cnn3C)cc1	0.5	15.9	7.0%	-21.4	-7.0
CCC(CC)N1CCN(CC2CC=CCC2)CC1 (stereo not given)	-1.3	-1.0	1.7%	x	-5.7
CCCC(C(=O)OCCN(CC)CC)(c1ccccc1)c1ccccc1	1.8	5.3	3.1%	x	x
NC(=O)/C(=C/c1cccnc1)NC(=O)c1ccccc1	-0.4	-0.6	-10.1%	x	x
COc1ccc(CCCc2nnc(SCC(=O)Nc3nc(C)cs3)n2C)cc1C	-1.3	4.6	-6.4%	-28.2	-3.2
O=S(=O)(c1ccc(-c2ccon2)s1)N1CCOCC1	0.1	-1.0	-4.9%	x	x
CCCCn1c(N)c(N(CC(C)C)C(=O)c2ccc(-n3c(C)ccc3C)cc2)c(=O)[nH]c1=O	-1.3	-0.5	x	x	x
CCn1c(C)nc2cc(S(=O)(=O)Nc3ccc(C)cc3)ccc21	0.8	5.5	-3.3%	x	10.6
CCc1ccccc1NC(=O)Cn1nnc(-c2cccnc2)n1	5.5	1.3	1.7%	-15.1	-7.7
N#C/C(=C\c1cccs1)c1nc2ccccc2[nH]1	-1.9	-3.9	-0.9%	-20.1	-0.3
COCC(=O)NCCNc1nc2ccc(C)cc2cc1C	0.7	0.5	-4.3%	-17.8	6.5
COc1ccccc1N1CCN(C(=O)CSc2nnc(NC(=O)c3ccco3)s2)CC1	-0.1	2.6	-8.5%	-20.6	1.7
Oc1ccc2nnc3c(Br)cnn3c2c1	i	u	x	x	x
COc1ccc(NC(=S)Nc2ncccc2C)cc1OC	-1.0	5.8	-0.7%	x	-7.1
Cc1cccc(OCc2nnc(SCC(=O)Nc3ccc(C)c(C)c3)o2)c1	-0.6	19.5	10.8%	-24.8	4.6	Arbovirus inh repeat=-9.6
O=C(CNS(=O)(=O)c1ccc(Br)cc1)N1CCOCC1	-5.9	6.0	-4.2%	17.7	7.7
Following part:
SMILES	RecA splice inh	Mtb betalactam	Mtb growth	YopH PTP inh	Arbovirus inh	others
C=CCn1c(O)c(CN2CCOCC2)c(C)c(C#N)c1=O	2.3	-10.4	0.6%	-7.5	x
Cc1ccc(NC(=O)Cc2cn(C)c3ccccc23)cc1F	0.7	7.7	10.2%	x	-8.6
Nc1nc(-c2ccccc2)c(N=Nc2cccnc2)s1	0.4	10.3	7.8%	x	-5.8
COc1ccc(CCNC(=S)NC(=O)c2cc(OC)c(OC)c(OC)c2)cc1OC	-1.8	-3.1	-4.0%	x	x
CCOc1ccccc1NC(=O)CSc1nnc(CNC(=O)c2c(F)cccc2Cl)o1	2.5	-10.5	x	x	x
CCOC(=O)c1c(-n2cnnn2)sc(C)c1C	-0.6	-21.4	-5.5%	21.8	-1.9
CCOC(=O)N1CCN(C2OC(=O)c3ccccc32)CC1 (stereo not given)	-0.8	-4.3	x	-10.3	-3.4
O=C(CSCc1ccc(C(=O)O)cc1)Nc1ccc2ccccc2c1	-1.1	80.7	35.7%	x	x
Cn1cc(S(=O)(=O)N2CCCC2)cc1C(=O)NCc1ccccc1	-0.6	-4.7	x	x	x
Cc1ccc2c(c1)C1CN(C)CCC1N2Sc1ccccc1[N+](=O)[O-] (stereo not given)	-4.7	29.0	3.2%	x	x
Cc1ccc(-c2nn(C)c(=O)c3ccccc23)cc1CN1CCCCC1	x	-1.0	1.9%	x	x
CCOC(=O)N1CCC(=NNC(=O)c2ccc(O)cc2)CC1	-11.0	4.2	5.7%	-28.0	2.9
CCCCN(Cc1ccccc1)c1ncnc2nc[nH]c12	5.1	-2.6	5.2%	-39.8	1.1
COc1ccc(S(=O)(=O)N2CCN(CCC(=O)Nc3ccc(F)cc3)CC2)cc1	0.4	11.2	-2.5%	-25.4	3.2
COc1ccc(-c2noc(CCC(N)=O)n2)cc1OC	-0.4	-5.4	-10.6%	0.8	3.5

The final 3 records of the section above open the next one.
SMILES	RecA splice inh	Mtb betalactam	Mtb growth	YopH PTP inh	Arbovirus inh	others
CCCCN(Cc1ccccc1)c1ncnc2nc[nH]c12	5.1	-2.6	5.2%	-39.8	1.1
COc1ccc(S(=O)(=O)N2CCN(CCC(=O)Nc3ccc(F)cc3)CC2)cc1	0.4	11.2	-2.5%	-25.4	3.2
COc1ccc(-c2noc(CCC(N)=O)n2)cc1OC	-0.4	-5.4	-10.6%	0.8	3.5
COc1ccccc1-c1cc(C(=O)Nc2ccc(F)cc2F)no1	-1.6	5.5	9.3%	-7.7	-7.0
Cn1c(C(=O)NCc2ccco2)cc2c(=O)[nH]c3ccccc3c21	-1.8	-6.4	0.8%	-15.0	5.9
Cc1ccc(S(=O)(=O)CCCS(=O)(=O)c2ccc(C)cc2)cc1	-2.5	5.0	-7.5%	-32.2	0.9
Cc1ccc(-n2ncc3c(=O)n(CC(=O)NCc4ccco4)cnc32)cc1	-1.4	-8.8	-12.2%	-28.7	-3.8
COc1ccccc1NS(=O)(=O)c1cc(NC(C)=O)ccc1N1CCCCC1	4.2	-0.1	4.0%	x	2.7

Compounds listed so far containing an aryl thioether with sulfur outside any ring:
SMILES	RecA splice inh	Mtb betalactam	Mtb growth	YopH PTP inh	Arbovirus inh	others
CCc1nc(SCC(=O)N2CCN(c3ccccc3)CC2)c2oc3ccccc3c2n1	32.4*	3.2	-6.8%	-42.5	0.5
c1ccc(OCCSc2ncnc3nc[nH]c23)cc1	0.4	7.2	3.5%	-57.6	-22.4	Arbovirus inh repeat=-13.0
CCCCc1c(C)nc2ccc(C)cc2c1SCCC(=O)O	x	-6.8	1.3%	x	-1.8
O=C(NCC1CC1)c1onc(CSc2ccc(F)c(F)c2)c1C(=O)NCC1CC1	5.5	-1.5	x	x	x
CCOc1ccc2nc(SCC)[nH]c2c1	-1.7	-3.7	1.0%	1.2	-2.5
O=C(CSc1nc2sc3c(c2c(=O)n1-c1ccccc1)CCCC3)NCc1ccco1	-3.9	-4.2	x	-19.6	-3.9	Arbovirus inh repeat=1.7
COc1ccc(CCCc2nnc(SCC(=O)Nc3nc(C)cs3)n2C)cc1C	-1.3	4.6	-6.4%	-28.2	-3.2
COc1ccccc1N1CCN(C(=O)CSc2nnc(NC(=O)c3ccco3)s2)CC1	-0.1	2.6	-8.5%	-20.6	1.7
Cc1cccc(OCc2nnc(SCC(=O)Nc3ccc(C)c(C)c3)o2)c1	-0.6	19.5	10.8%	-24.8	4.6	Arbovirus inh repeat=-9.6
CCOc1ccccc1NC(=O)CSc1nnc(CNC(=O)c2c(F)cccc2Cl)o1	2.5	-10.5	x	x	x

Assay outcomes (PubChem BioAssay)
